Bioassay records as filed in PubChem.
DUSP1 inh = MKP-1 phosphatase inhibitors, primary screen, biochemical, in vitro; Dual specificity protein phosphatase 1 (Homo sapiens), P28562; recombinant MKP-1, OMFP hydrolysis fluorescence; inhibition, %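 (compounds tested at a single concentration somewhere between 10 and 100 µM)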; 0.15% of 65,000 active; AID 374, 2006;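 active = inhibition above about 50%, limit read from the data; inconclusive = inhibition over screen mean plus 3 SD, below that limit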;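 also: 0% = DMSO max control wells and 100% = wells with enzyme stopped by NaOH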
D1 allo mod = D1 CRE-luciferase signal change, two-sided – cell-based, HEK293 D1, dopamine EC30, D1 allosteric modulator project, primary screen; 5.9% of 58,000 active; B-score at 10 µM; dopamine EC30 potentiation; actives deviate in either direction;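 active = luminescence count or its row- and column-corrected plate score outside the 99.7% band of the plate's sample wells, on either side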
RORa activator = activators of orphan receptor RORA, primary screen, cell-based, luminescence; Nuclear receptor ROR-alpha (Homo sapiens), P35398; CHO-K1 Gal4-RORA LBD luciferase reporter; percent increase over mock-subtracted basal signal; activation, % at 10 µM; 1.5% of 65,000 active; AID 560, 2006;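 active = activation above the mean of all tested compounds plus 3 SD, cut at about 49% in these data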;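 also: 0% = DMSO-treated RORA cells and 100% = added signal equal to DMSO minus mock-transfected cells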
Target sequence (P35398 whole entry, looked up, the tested form may be a part): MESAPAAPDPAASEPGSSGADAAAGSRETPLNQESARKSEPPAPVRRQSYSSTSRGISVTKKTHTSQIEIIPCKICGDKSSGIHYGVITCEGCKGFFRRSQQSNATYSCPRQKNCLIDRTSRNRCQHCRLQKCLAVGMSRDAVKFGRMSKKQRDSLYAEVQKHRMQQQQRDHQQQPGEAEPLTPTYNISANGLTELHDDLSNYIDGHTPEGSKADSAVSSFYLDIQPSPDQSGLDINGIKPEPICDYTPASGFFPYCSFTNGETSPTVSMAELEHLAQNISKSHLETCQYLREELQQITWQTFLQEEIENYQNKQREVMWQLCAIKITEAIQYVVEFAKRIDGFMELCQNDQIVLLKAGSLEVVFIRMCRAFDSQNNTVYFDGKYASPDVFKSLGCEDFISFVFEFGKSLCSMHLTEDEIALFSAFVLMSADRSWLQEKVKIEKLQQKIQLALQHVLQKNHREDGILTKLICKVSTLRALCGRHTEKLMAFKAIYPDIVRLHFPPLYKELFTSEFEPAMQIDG
Hsp90 inh = tumor Hsp90 inhibitors, primary screen, cell lysate, fluorescence polarization, NCI-N417 lysate; Heat shock protein HSP 90-alpha (Homo sapiens), P07900; Cy3B-geldanamycin FP displacement; inhibition, % at 30 µM; 0.35% of 64,000 active;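 active = inhibition above 50%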;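 also: 0% = tracer plus lysate wells and 100% = tracer alone without lysate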
HER2 expr 66K = inhibitors of Her2 protein expression, primary screen, SKBR-3 cells, AlphaScreen, 66K library. Receptor tyrosine-protein kinase erbB-2 (Homo sapiens), P04626. SKBR-3 HER2 protein level, 18-24 h; active compounds read low. HER2 level % of control, % at 10 µM. 0.69% of 65,000 active;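 active = HER2 level under 5% of the carrier-only control; inconclusive = no clear call, values can overlap the other calls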;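 also: 100% = DMSO carrier and 0% = 500 nM PU-H71 HSP90 inhibitor; lower value means stronger loss of Her2 protein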
Cdc25B block = inhibitors of Cdc25B phosphatase catalytic domain, primary screen, biochemical, OMFP fluorescence; M-phase inducer phosphatase 2 (Homo sapiens), P30305; recombinant Cdc25B, OMFP fluorescence Ex485/Em525; inhibition, %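 (compounds tested at 10 µM final in the well)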; 0.1% of 65,000 active; in the data active = inhibition above about 50%
SF-1 act = activators of human SF-1, primary screen, cell-based, CHO-K1, Gal4-SF-1 LBD, luciferase luminescence | Steroidogenic factor 1 (Homo sapiens), Q13285 | CHO-K1 Gal4-SF-1 LBD luciferase reporter; % increase over DMSO SF-1-specific signal | activation, % at 10 µM | 1.9% of 65,000 active;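 active = activation above the mean activation of all tested compounds plus 3 SD, cut at about 50% in these data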
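Material: Transient Gal4-SF-1 LBD reporter, CHO-K1 | Input: 4,000 cells/well | Dosing: One dose, 10 µM compound, 1% DMSO | Incubation: 20 h compound treatment, 37 °C | Detection: SteadyLite luciferase luminescence | Evaluation: Percent activation relative to DMSO median and mock-transfected background | Benchmarks: DMSO-treated SF-1-transfected cells as negative, DMSO-treated mock-transfected cells lacking SF-1 as background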
TNAP act DEA = human TNAP enzyme activators, primary screen, biochemical, luminescent, intermediate phosphate acceptor level; 64,000 tested, under 10 active; AID 813, 2007; activation factor at 20 µM; purified TNAP, CDP-star luminescence, 100 mM DEA, 30 min; active compounds read high; scale: 0 levamisole-inhibited, 1 vehicle-only enzyme; Alkaline phosphatase, tissue-nonspecific isozyme (Homo sapiens), P05186;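 active = activation factor of at least 2 at 20 µM, relative to controls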
Target sequence (P05186 whole entry, looked up): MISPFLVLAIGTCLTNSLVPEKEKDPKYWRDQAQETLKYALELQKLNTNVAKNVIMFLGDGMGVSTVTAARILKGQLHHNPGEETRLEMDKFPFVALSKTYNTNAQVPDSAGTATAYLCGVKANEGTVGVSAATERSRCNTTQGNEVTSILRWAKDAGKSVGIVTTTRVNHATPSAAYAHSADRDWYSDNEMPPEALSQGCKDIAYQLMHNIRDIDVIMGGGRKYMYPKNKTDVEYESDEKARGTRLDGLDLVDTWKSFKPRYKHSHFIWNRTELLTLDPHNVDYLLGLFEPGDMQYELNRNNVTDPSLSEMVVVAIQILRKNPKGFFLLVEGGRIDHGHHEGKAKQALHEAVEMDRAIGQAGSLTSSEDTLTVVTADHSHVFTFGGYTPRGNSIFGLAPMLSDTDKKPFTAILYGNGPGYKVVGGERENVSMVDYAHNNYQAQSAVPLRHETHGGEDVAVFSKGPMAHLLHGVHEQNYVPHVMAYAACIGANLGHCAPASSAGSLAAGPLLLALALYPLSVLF
Numbers without * were called inactive; ? = inconclusive; nt = not tested or not shown. Some of the compounds tested (hit frequency here may not be typical).

[1] Cc1ccc2[nH]c(=O)c(-c3noc(C(C)C)n3)cc2c1
[2] CCOc1cc(C)c(Cl)cc1S(=O)(=O)NCc1ccc2c(c1)OCO2
[3] Cn1c(=O)c2c(nc(Br)n2CCSc2ncccn2)n(C)c1=O
[4] Cc1ccc(-c2nc(N)n(C(=O)Cc3ccccc3)n2)cc1
[5] Cc1cccc(N(CC(=O)N2CCCC2)S(=O)(=O)c2ccccc2)c1
[6] CCNC(=O)CC1C(=O)N(c2ccccc2)C(=O)N1CCc1ccc(OC)cc1 (centres undefined)
[7] CCSc1ccccc1C(=O)n1nnc2ccccc21
[8] CCOc1ccc(Cc2nn[nH]n2)cc1
[9] O=c1c2ccccc2nc(-c2ccoc2)n1CCc1ccccc1
[10] Cc1cccc(N2CCN(C(=O)c3ccc(N4CCCC4=O)cc3)CC2C)c1 (centres undefined)

assay / entry	1	2	3	4	5	6	7	8	9	10
DUSP1 inh	4	0	-10	7	5	0	-1	5	-8	9
D1 allo mod	1.1	-0.89	-0.51	0.014	-0.72	nt	0.49	0.69	-0.13	nt
RORa activator	-10	10	-11	11	-15	-12	-16	1	3	-11
Hsp90 inh	-6	-1	0	-4	-2	-2	-5	-2	-3	-3
HER2 expr 66K	103	72	107	107	108	85	90	113	100	74
Cdc25B block	4	-11	0	-6	-24	-6	-14	-7	-3	1
SF-1 act	6	-3	6	-5	8	7	-15	-11	8	5
TNAP act DEA	0.9	1	0.9	0.9	0.9	1	0.9	0.9	1	0.9

[11] Cc1ccc(N2C(=O)SC(N(CC(=O)O)c3cccc(C)c3)C2=O)cc1 (centres undefined)
[12] Cc1cccc2cc(CN(Cc3ccco3)C(=O)c3ccncc3)c(=O)[nH]c12
[13] Cc1ccc(-c2nc(N)n(C(=O)c3cccnc3)n2)cc1
[14] COCCN1C(=O)C(=O)/C(=C(/O)c2ccc3c(c2)OCCO3)C1c1ccc(C(=O)OC)cc1 (centres undefined)
[15] O=C1C2C3C=CC(C3)C2C(=O)N1c1cccc(-c2nc3ccccc3o2)c1 (centres undefined)
[16] Cc1cc(C)n(C(=O)c2ccncc2)n1
[17] O=C(COc1ccccc1Cl)NCc1ccco1
[18] Cc1nc2scc(-c3cccs3)c2c(=O)o1
[19] O=C(c1ccc2c(c1)OCO2)n1nnc2ccccc21
[20] Cc1nn(C(=O)c2ccccc2)c2c1C(=O)CC(C)(C)C2

assay / entry	11	12	13	14	15	16	17	18	19	20
DUSP1 inh	10	-8	-7	-2	6	11	-2	6	-6	-2
D1 allo mod	-1.1	-0.93	0.93	-0.0082	1.1	nt	1.5	0.45	-0.13	nt
RORa activator	9	26	-8	13	18	-5	0	1	8	-11
Hsp90 inh	nt	-5	-2	-5	-3	4	-2	-10	-2	-1
HER2 expr 66K	79	103	97	112	114	99	111	36	105	123
Cdc25B block	-1	-11	4	3	-5	0	-4	-17	7	-7
SF-1 act	23	-25	3	14	6	-4	4	10	5	-12
TNAP act DEA	1	0.9	0.8	0.9	0.9	0.9	0.8	1	0.9	0.8

[21] CCn1c(Cc2ccccc2)nnc1SCC(=O)Nc1ccc(S(N)(=O)=O)cc1
[22] Cc1ccc(OCc2nnc(SCC(=O)Nc3ccc4c(c3)OCO4)n2C)cc1
[23] C=CCn1c(=O)c2ccccc2n2c(Sc3nnnn3-c3ccccc3)nnc12
[24] COc1ccc(-c2cc(C(F)(F)F)nc(S(C)(=O)=O)n2)cc1OC
[25] COc1ccccc1NC(=O)c1nc[nH]c1C(=O)Nc1ccccc1OC
[26] Cc1sc2ncn(CC(=O)NCCCC(=O)N3CCN(c4ncccn4)CC3)c(=O)c2c1C
[27] COc1ccc(S(=O)(=O)n2nc(OC(=O)C3CCCCC3)cc2N)cc1
[28] Nc1nc(-c2ccc(Cl)cc2)nn1C(=O)c1cccnc1
[29] CCOC(=O)C1CCN(Cc2ccc(OC)c(C)c2OC)CC1
[30] O=c1c2ccccc2nc(-c2ccccc2)n1Cc1ccco1

assay / entry	21	22	23	24	25	26	27	28	29	30
DUSP1 inh	-7	10	18	1	14	5	5	-1	2	0
D1 allo mod	-0.52	-0.19	-0.079	6.6*	0.84	0.77	nt	0.83	-0.53	1.7
RORa activator	-1	-10	-6	-61	6	7	-6	29	-29	0
Hsp90 inh	-7	-4	-1	nt	-5	-4	0	-1	-2	-4
HER2 expr 66K	93	88	114	nt	76	76	92	82	90	57
Cdc25B block	2	-14	1	-5	-5	3	-10	2	-7	-9
SF-1 act	-6	-3	6	-47	2	5	-7	-5	2	1
TNAP act DEA	0.9	0.8	0.9	1	1	1.1	1	0.7	1	0.9

[31] CC1=C(C(=O)Nc2cc(C)ccn2)C(c2ccc(C)cc2)C2=C(CCCC2=O)N1 (centres undefined)
[32] CCOCCCn1c(=S)[nH]c2cc(C(=O)NCCOC)ccc2c1=O
[33] CCOc1ccccc1C(=O)NCC(=O)OCC(=O)NCCc1ccc(S(N)(=O)=O)cc1
[34] Cc1nc2ccc(NC(=O)N3CCSCC3)cc2s1
[35] CCOC(=O)N1CCN(C(=O)c2ccc(CNS(=O)(=O)c3ccc(OC)cc3)cc2)CC1
[36] COc1ccc(CC(=O)Nc2ccc(-c3noc(-c4cccc(OC)c4)n3)cc2)cc1
[37] CN1CCc2c(sc3c2c(=O)n(-c2ccc(Cl)cc2)c2nncn32)C1
[38] O=C(Nc1ccccc1)C1=C(O)CC(c2ccoc2)CC1=Nc1ccccc1 (centres undefined)
[39] COC(=O)CCN(C(=O)C1C2CC3CC(C2)CC1C3)c1ccccn1 (centres undefined)
[40] Nc1nc(-c2cccnc2)nn1C(=O)COc1ccccc1

assay / entry	31	32	33	34	35	36	37	38	39	40
DUSP1 inh	8	17	10	-6	22	6	5	-1	-4	-15
D1 allo mod	0.58	0.088	-0.11	-0.062	nt	0.11	nt	1.6	0.2	-0.0076
RORa activator	0	-9	-11	-11	12	15	2	-5	-12	-12
Hsp90 inh	1	-1	nt	-9	1	-5	nt	-6	-3	-1
HER2 expr 66K	109	57	118	95	92	113	57	86	145	97
Cdc25B block	-6	-19	-1	-10	-3	11	-9	5	-22	-9
SF-1 act	7	25	-2	29	-21	-24	11	7	-11	-7
TNAP act DEA	0.9	1	1	1	1.1	0.9	1	0.8	0.9	0.9

Overlap with the part before: 4 compounds; new compounds follow.
[37] CN1CCc2c(sc3c2c(=O)n(-c2ccc(Cl)cc2)c2nncn32)C1
[38] O=C(Nc1ccccc1)C1=C(O)CC(c2ccoc2)CC1=Nc1ccccc1 (centres undefined)
[39] COC(=O)CCN(C(=O)C1C2CC3CC(C2)CC1C3)c1ccccn1 (centres undefined)
[40] Nc1nc(-c2cccnc2)nn1C(=O)COc1ccccc1
[41] COc1ccc(C2=NOC(C(=O)NCc3ccco3)C2)cc1OC (centres undefined)
[42] COc1cccc(C2C(C(=O)Nc3cccnc3)=C(C)Nc3nnnn32)c1OC (centres undefined)
[43] Cc1cccc2cc(C#N)c(N3CCN(C)CC3)nc12
[44] Cn1c(SCC(=O)NC2CC2)nnc1C(F)(F)F
[45] CC(CCc1ccco1)NC(=O)c1cc2c(-c3ccccc3F)nn(C)c2s1 (centres undefined)
[46] COc1ccccc1CCNC(=O)CSc1nc(-c2ccco2)cc(C(F)(F)F)n1
[47] Cc1ccccc1CS(=O)(=O)CCC(=O)NCCCN1CCOCC1
[48] Cc1cccc(N2C(=O)SC(N(C)c3ccccc3)C2=O)c1 (centres undefined)
[49] COc1ccc(NC(=O)CN2CCN(CC(=O)Nc3cc(OC)cc(OC)c3)CC2)cc1
[50] O=C(CN1C(=O)C2CC=CCC2C1=O)Nc1ccc(S(=O)(=O)NC2=NCCCCC2)cc1 (centres undefined)

assay / entry	37	38	39	40	41	42	43	44	45	46	47	48	49	50
DUSP1 inh	5	-1	-4	-15	24	5	-12	22	-2	0	2	22	2	1
D1 allo mod	nt	1.6	0.2	-0.0076	-0.22	-0.58	-2.2*	nt	0.25	-0.81	0.86	-0.26	0.5	-0.31
RORa activator	2	-5	-12	-12	34	-8	-15	24	-4	-22	-3	6	-5	-4
Hsp90 inh	nt	-6	-3	-1	-4	2	-3	-3	-5	-6	-3	-2	1	-2
HER2 expr 66K	57	86	145	97	98	60	96	103	106	73	96	108	125	103
Cdc25B block	-9	5	-22	-9	-25	4	4	4	-1	-4	15	3	-19	-3
SF-1 act	11	7	-11	-7	23	4	-1	-8	-6	20	-16	18	16	7
TNAP act DEA	1	0.8	0.9	0.9	1	1	0.9	0.9	1	0.9	0.9	0.9	1	1.1

[51] CC(C)Nc1ncnc2c1cnn2-c1ccc(Cl)cc1
[52] Cc1cnn(C(=S)NCc2ccco2)c1
[53] CCOC(=O)C1CCN(Cc2cn[nH]c2-c2ccc(C)cc2)CC1
[54] COc1ccc(C2=NOC(C(=O)NC3CCCCC3)C2)cc1OC (centres undefined)
[55] Cc1nc2nc[nH]n2c(=O)c1NS(C)(=O)=O
[56] CC1=C(C(=O)Nc2ccccn2)C(c2cccnc2)n2nnnc2N1 (centres undefined)
[57] O=C(COc1ccccc1Cl)Nn1cnnc1
[58] O=C(CCSc1nc(-c2ccco2)cc(C(F)(F)F)n1)N1CCN(c2ccccc2)CC1
[59] Cc1cccc(N2CCN(C(=O)c3ccc(NC(=O)C4CCCO4)cc3)CC2C)c1 (centres undefined)
[60] COc1ccc(C2=NOC(C(=O)N3CCOCC3)C2)cc1OC (centres undefined)

assay / entry	51	52	53	54	55	56	57	58	59	60
DUSP1 inh	2	-3	?	3	3	2	5	12	-1	1
D1 allo mod	-6.1*	0.73	0.73	4.6*	-0.55	0.85	-0.26	-0.036	-0.061	1.4
RORa activator	11	-10	-3	1	-3	-18	-21	7	17	2
Hsp90 inh	1	-8	-7	-1	-1	-2	1	1	nt	-2
HER2 expr 66K	123	104	94	123	148	77	89	92	64	122
Cdc25B block	5	2	-7	-8	-13	-10	-6	-12	-2	10
SF-1 act	14	-7	0	7	1	9	16	5	14	28
TNAP act DEA	0.9	0.7	0.9	0.9	0.8	1	0.9	0.9	0.9	0.9

[61] c1ccc2[nH]c(NC3=NCCC3)nc2c1
[62] O=C1OC(c2ccc(Br)cc2)=N/C1=C\N1CCCCC1
[63] COC(=O)c1ccc(Oc2cc(C)nc(-n3nc(C)cc3C)n2)cc1
[64] COCCCN1C(=O)C(=O)/C(=C(/O)c2ccc(C)cc2)C1c1ccccc1 (centres undefined)

assay / entry	61	62	63	64
DUSP1 inh	25	12	-8	-22
D1 allo mod	-0.38	2	7.8*	-0.25
RORa activator	-16	43	-37	-6
Hsp90 inh	-2	-4	0	3
HER2 expr 66K	93	114	69	126
Cdc25B block	3	2	-4	3
SF-1 act	-10	39	-51	-1
TNAP act DEA	1.3	0.9	0.9	1

At a glance, 2 of the compounds above.
[63] COC(=O)c1ccc(Oc2cc(C)nc(-n3nc(C)cc3C)n2)cc1
[64] COCCCN1C(=O)C(=O)/C(=C(/O)c2ccc(C)cc2)C1c1ccccc1 (centres undefined)

assay / entry	63	64
DUSP1 inh	-8	-22
D1 allo mod	7.8*	-0.25
RORa activator	-37	-6
Hsp90 inh	0	3
HER2 expr 66K	69	126
Cdc25B block	-4	3
SF-1 act	-51	-1
TNAP act DEA	0.9	1
